Screening results (PubChem BioAssay)
Tg IFNy HTS – T. gondii growth inhibition under IFN-gamma | AID 1259416 | Toxoplasma gondii growth in IFN-gamma-treated host cells; hits give low values; reference of the scale not given here | hit rate 3.8% among 69,000 | activity change, negative = inhibition, %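 (about 20 µM by stock and volumes)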;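 active means below -70%; inconclusive means fit judged invalid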;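 further: host cells are HeLa cells infected with Toxoplasma gondii; parasite growth read as luciferase light; one replicate is shown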
Numbers without * were called inactive; i = inactive; ? = inconclusive; & = joins results of further samples; ! = not active in a repeat. The list is partial. The share of hits here may be higher or lower than overall.

compound	Tg IFNy HTS
O=C(C1CCCO1)N1CCC2(CC1)NCCc1[nH]cnc12 (stereo not given)	-3.1
Cc1ccc(CNS(=O)(=O)c2ccc3[nH]c(=O)ccc3c2)o1	13.7
CCNc1ncc(CN2CCC(C(=O)N3CCCC3)CC2)cn1	-0.3
COc1ccc(C(C)C)cc1CN1CCN(c2ncnc3nc[nH]c23)CC1	18.6
Cc1ccc(C)c(S(=O)(=O)N2CCC3(CC2)Nc2ccc(C)c(C)c2-n2cccc23)c1	14.8
Clc1ccc(-c2nc(N3CCOCC3)ncc2-c2ncc[nH]2)cc1	-60.3
c1ccc(C2CCCN(c3ncnc4c3CCNC4)CC2)cc1 (stereo not given)	-79.0*
COc1ccccc1NC(=O)CSc1nc2ccccc2n1CC(=O)N1CCOCC1	5.9
Cc1noc(C)c1NC(=O)Nc1ccc2c(c1)C(=O)N(C)[C@@H]1CC[C@H](CC(=O)N[C@@H]3CCN(Cc4ccccc4)C3)O[C@@H]1CO2	4.3
CC(C)c1nc(-c2cc(C(=O)N(C)Cc3ccccn3)c3ccccn23)cs1	32.9
CS(=O)(=O)N1[C@H](C#N)[C@H](c2ccc(-c3ccccc3F)cc2)[C@H]1CO	21.8
Cc1ccc(F)cc1CN1CC[C@@H]2OCCN(C(=O)c3cnccn3)[C@@H]2C1	-4.9
CCOC(=O)c1sc2sc(C(=O)OCC)c(C)c2c1C	42.2
O=C(C1CCCCC1)N1[C@@H](CO)[C@@H]2c3ccccc3NC[C@@H]21	-5.0
Cc1cc(N2CC(C(=O)O)CC2=O)ccc1NC(=O)c1ccco1 (stereo not given)	1.7

Later entries.
compound	Tg IFNy HTS
Cn1ccnc1CN(Cc1cc(=O)n2c3c(cccc13)CCC2)C1CC1	-1.0
O=C(NCc1ccncc1)C1CC12CCN(S(=O)(=O)c1ccccc1)C2 (stereo not given)	-3.1
CC(=O)O[C@]1(C(C)=O)CC[C@H]2[C@@H]3C=CC4=CC(=O)CC[C@]4(C)[C@H]3CC[C@@]21C	13.6
CC(=O)O[C@]1(C(C)=O)CC[C@H]2[C@@H]3CCC4=CC(=O)CCC4=C3[C@@H](c3ccc(N(C)C)cc3)C[C@@]21C	-68.2
COc1ccc(NC(=O)N(C)C[C@@H]2Oc3c(NC(=O)CCCCCC(=O)Nc4ccccc4N)cccc3C(=O)N([C@@H](C)CO)C[C@H]2C)cc1	-37.0
CCOc1ccccc1CN(CC)C(=O)c1csc(C(C)=O)c1	-8.5
COc1ccccc1NC(=O)C(=O)NCCc1csc(-c2ccc(F)cc2)n1	11.2
COCC(=O)N1CCn2c(COCc3cccc(C)n3)cnc2C1C (stereo not given)	3.5
O=C1C(O)CC2c3ccccc3CC3(CCCC3)N12 (stereo not given)	13.0
CC1=CC(C)(C)N(CN2C(=O)c3ccccc3C2=O)c2ccc(C)cc21	-14.8
Cc1cc(C(=O)NC(CC(C)C)c2ncnn2C)nc(C)n1 (stereo not given)	0.6
NC(=O)C1(N2CCCCC2)CCN(c2ncc(NC(=O)c3ccccc3)cc2C(=O)O)CC1	2.8
CCS(=O)(=O)N1CCCC(c2nc(C)ncc2-c2cc(C)no2)C1 (stereo not given)	20.7
Cc1nn(S(=O)(=O)c2ccc(Cl)cc2)c(C)c1Sc1ccc(C(F)(F)F)cn1	-61.2
Cc1ccc(NC(=O)c2nc(Nc3ccc(Cl)cc3)c3ccccc3n2)cc1F	-57.5

Next structures follow.
compound	Tg IFNy HTS
COc1ccccc1C(=O)Nc1cnc2sc(C)nn2c1=O	2.2
CO[C@@H](CN(C)S(=O)(=O)c1ccc(C)cc1)[C@H](C)CN(C(=O)Nc1ccccc1F)[C@H](C)CO	35.0
CCn1cnc(C(=O)NC)c1C(=O)NC	-0.9&8.1
CNC[C@H]1Oc2ccc(NC(=O)NC3CCCCC3)cc2CC(=O)N([C@@H](C)CO)C[C@H]1C	-12.2
O=c1[nH]nc(-c2ccco2)n1CCc1ccccc1F	-3.0
Cc1cc(C)c2ccc(C(=O)N3CCC(O)(CN(C)C)C3)nc2c1O (stereo not given)	-2.5
CCOc1ccc(-c2nc(CN3CCN(C(=O)Nc4ccc(Cl)cc4)CC3)c(C)o2)cc1	-37.3
O=C(O)C[C@H]1CC[C@@H]2[C@H](COC[C@H](O)CN2S(=O)(=O)c2ccc(Oc3ccccc3)cc2)O1	3.9
CN(Cc1ccco1)[C@H]1CN(c2ncc(F)cn2)C2CCCOC21 (stereo not given in full)	38.2
CCOC(=O)c1c[nH]n2c(=O)c3c(nc12)CCCC3	15.2
O=C(Nc1ccc(-c2nc(-c3ccccc3)co2)cc1)Nc1cccc(F)c1	30.7
COC(=O)c1cc(C)nc2c1c(=O)nc(SCc1nc(-c3ccccc3C)oc1C)n2C1CC1	i
Cc1ccccc1S(=O)(=O)Nc1ccc2c(c1)C(=O)N(C)[C@H]1CC[C@@H](CC(=O)O)O[C@@H]1CO2	14.6
Nc1ncccc1CN1CCCC1c1ccc(F)cc1 (stereo not given)	16.4
Cc1cc(Nc2cc(CN3CCOCC3)c3nc(C)c(Cc4ccc(Cl)cc4F)n3n2)n[nH]1	-78.1*

Going on with the list:
compound	Tg IFNy HTS
O=C(Nc1cnc2n1CCCC2)C1CCOC1 (stereo not given)	-1.9
CCc1cnc(N2CC[C@H]3CN(Cc4cccnc4)S(=O)(=O)[C@@H]3CC2)nc1	-32.0
COC(=O)Nc1nc2ccc(Sc3ccccc3)cc2[nH]1	-78.0*!
CO[C@H]1CN(C)C(=O)c2ccc(NC(=O)C3CC3)cc2OC[C@@H](C)N(C(C)=O)C[C@@H]1C	45.4
COC(=O)c1cc(NC(=O)c2c(C)noc2C)ccc1N1CCOCC1	37.8
O=C(Sc1cccs1)C1CC2C=CC1CC2 (stereo not given)	-4.9
Cc1nc(COC[C@@H]2CCC3C(CCN3S(C)(=O)=O)O2)cs1 (stereo not given in full)	5.8
Cc1ccc(-c2nc(CNS(=O)(=O)c3c(C)cc(C)cc3C)c(C)o2)cc1	-22.9
O=C(NN1CC(=O)N(c2cc(Cl)cc(Cl)c2)CC1=O)c1sccc1Cl	4.1
O=C(Cc1cccs1)N1CCC(n2nnc(-c3ccc(F)cc3)n2)CC1	-4.9
O=C(CS(=O)CC(=O)Nc1cnc2ccccc2c1)Nc1ccc(Cl)cc1 (stereo not given)	-22.3
CCC(=O)N1[C@H](C(=O)N(C)C)[C@@H](CO)[C@@H]2Cn3c(ccc(-c4ccc(F)cc4)c3=O)[C@@H]21	10.3
COc1ccc2c3c(n(C)c2c1)[C@H](CO)N(Cc1ccc(F)cc1)CC31CCN(C)CC1	226.9
O=C(c1n[nH]c2c1CCCC2)N1CCC(c2[nH]ncc2-c2ccccc2)CC1	-48.9
CCOc1cc(C(=O)Nc2ccc3c(c2)CCC(=O)N3)cc(OCC)c1OCC	8.9

Next section, starting with the last 3 of the part before.
compound	Tg IFNy HTS
COc1ccc2c3c(n(C)c2c1)[C@H](CO)N(Cc1ccc(F)cc1)CC31CCN(C)CC1	226.9
O=C(c1n[nH]c2c1CCCC2)N1CCC(c2[nH]ncc2-c2ccccc2)CC1	-48.9
CCOc1cc(C(=O)Nc2ccc3c(c2)CCC(=O)N3)cc(OCC)c1OCC	8.9
Cc1oc2ccc(O)cc2c1C(=O)NCCCN1CC(C)CC(C)C1 (stereo not given)	-6.6
CC(C)CCN1[C@@H]2CCN(C(=O)c3ccn[nH]3)CC[C@@H]2Oc2ccccc2S1(=O)=O	-43.2
Cc1c(C(=O)N[C@H](C)C(=O)N2CCCC(C(=O)CS(C)(=O)=O)C2)[nH]c2ccccc12 (stereo not given in full)	-14.0
CO[C@H]1CCN(C2CCOCC2)C[C@@H]1Cc1cccc(C)c1	-7.2
Cc1nnsc1CN(C)C(=O)c1sc2ccccc2c1C	72.7
O=C(O)C1CN(c2ccc3cccc(Cl)c3n2)CCN1 (stereo not given)	-9.7
COc1ccc(-c2noc(CCC(N)=O)n2)cc1OC	48.4
COc1ccc(NC(=O)C2CCN(S(=O)(=O)c3ccc4[nH]c(=O)ccc4c3)CC2)c(OC)c1	-45.9
COCC(=O)N1[C@H](C#N)[C@H](c2ccccc2C2=CCCC2)[C@H]1CO	17.2
COc1ccc2c3c(n(C)c2c1)[C@@H](CO)N(Cc1cccc(Cl)c1)CC31CCN(C(=O)C2CC2)CC1	22.4
Cc1oc(C2CCN(C(=O)Cc3c(F)cccc3Cl)CC2)nc1C(=O)N1CCCC1	-72.8*
COc1ccc(NC(=O)Nc2ccc(-c3nc(-c4cccc(Br)c4)co3)cc2)cc1OC	25.2
COC(=O)c1cc(S(=O)(=O)N(Cc2ccc(OC)cc2)Cc2cccn2C)oc1C	-13.2
CC1=CC(C)(C)N=C(Nc2nc(C)c3cc(C)cc(C)c3n2)N1	-99.0*
Cc1sc2ncc(C(=O)N3CCC4(CCCN(C)C4=O)C3)c(=O)n2c1C (stereo not given)	-3.6

(cont.)
compound	Tg IFNy HTS
Cc1ccc(N2CCOCC3(CCCN(C(=O)NC(C)C)C3)C2)nn1 (stereo not given)	9.6
COc1ccc(C(=O)NN2CC(=O)N(C(C)C)C2=O)c2ccccc12	28.4
COc1ccc(Nc2nc(NC(=O)Nc3ccc(Cl)cc3)n[nH]2)cc1	-53.3
CCOC(=O)NC(=S)Nc1ccc(NC(=O)c2cc(Cl)ccc2O)c(Cl)c1	-12.0
COc1c(F)cccc1C(=O)N(C)Cc1cccc2ncccc12	-17.7
Cc1nc(-c2ccc(Cl)cc2)sc1CCNC(=O)C1CCCCC1	-50.9
CS(=O)(=O)N1Cc2cc(C(=O)NCC3CC3)nc(-c3cccc(-c4cncnc4)c3)c2[C@H]1CCO	8.4
CCN(CCOC)c1cc(C2CCNCC2)ncn1	-2.9
O=S(=O)(NC[C@H]1[C@H](c2ccccc2)[C@H](CO)N1CC1CC1)c1ccccc1	14.7
COc1ccc(CC2(CO)CCN(Cc3cn(C)c4ccccc34)CC2)cc1	-8.2
CCC(=O)N1CCOCC2(CCC(CN(C)Cc3ccco3)O2)C1 (stereo not given)	-41.0
Cc1noc(C)c1NC(=O)Nc1ccc2c(c1)C(=O)N(C)[C@H]1CC[C@H](CC(=O)N[C@@H]3CCN(Cc4ccccc4)C3)O[C@@H]1CO2	11.4
N#C[C@H]1[C@H](c2ccccc2C2=CCCC2)[C@@H](CO)N1C(=O)Cc1ccncc1	-19.0
CCOCC1CN(C(=O)c2ccco2)Cc2cnn(C)c21 (stereo not given)	-9.5
CCCC(C(=O)OCCN(CC)CC)(c1ccccc1)c1ccccc1	20.8&-5.2

Taken from the results shown for reference:
compound	Tg IFNy HTS
CCOCC1CN(C(=O)c2ccco2)Cc2cnn(C)c21 (stereo not given)	-9.5
CCCC(C(=O)OCCN(CC)CC)(c1ccccc1)c1ccccc1	20.8&-5.2

Later entries.
compound	Tg IFNy HTS
Cc1nn(C)cc1C(C)n1ccnc1-c1ccc(N(C)C)nc1 (stereo not given)	8.8
CCOc1ccc2nc(SCC)[nH]c2c1	54.4
O=C(NCCO)c1ccc(Cl)c(Cl)c1	30.6
CS(=O)(=O)CC(=O)N1CCO[C@H]2[C@@H](Oc3cccnc3)CC[C@H]21	-8.4
CCOc1ccccc1NC(=O)c1nnn(Cc2nc(-c3ccc(OC(C)C)cc3)oc2C)c1C	32.8
O=C1CCCC[C@]2(CN(C(=O)c3ccnc(N4CCOCC4)c3)C[C@H]2c2ccccn2)N1	11.2
Cc1ccc(S(=O)(=O)NCC(=O)Nc2ccc3c(c2)OCCO3)cc1	1.8
CC(=O)NC1=NN(C(C)=O)C(C)(CCS(=O)(=O)c2ccc(Br)cc2)S1 (stereo not given)	17.3
O=C(CSCc1ccccc1Cl)NCc1cc(C2CC2)n[nH]1	59.8
COc1ccc(N(Cc2nc(-c3ccc(OC(C)C)cc3)oc2C)S(=O)(=O)c2ccccc2)cc1	-21.6
CCOCC(=O)N1CCC2(CC1)CC(OCC1CCOCC1)CO2 (stereo not given)	-40.0
O=C(c1cscn1)N1CC[C@@H]2[C@H]1CCN2Cc1ccoc1	-29.0
CS(=O)(=O)N1CCC2OCCCC2(COc2cccnc2)C1 (stereo not given)	3.7
CC(C)NC(=O)N1CCC2(CC1)CCn1c(C3CC3)cnc12	-4.3
COc1cccc(-c2cccc(-c3nc(C(=O)Nc4ccc(-c5ccccc5)cc4)cc4c3[C@@H](CCO)N(S(=O)C(C)(C)C)C4)c2)c1 (stereo not given in full)	?

Next entries.
compound	Tg IFNy HTS
O=C(c1ccco1)N1CCN(c2ccnc3cc(Cl)ccc23)CC1	22.4
O=C(N1CCOCC1)N1CCc2ncnc(-c3ccccc3)c2CC1	-66.5
CC(=O)Nc1nnc(SCC(=O)Nc2ccc(C)c(C)c2)s1	-1.5
O=C1C(=O)N(Cc2ccccc2)c2ccccc21	2.1
Cc1sc2c(c1C)C(=O)CS(=O)(=O)N2C	26.7
CCC1C=CCN1C(=O)c1ccc(-n2cnnc2)cc1 (stereo not given)	2.6
CC(C)C1(C)C(=O)N=C2c3ccccc3C(=O)N21 (stereo not given)	15.4
Cc1ncc2c(c1CNC(=O)Cc1ccsc1)CCN(C(=O)/C=C/c1cccc(F)c1F)C2	-5.4
Cc1ccc(-c2nn(-c3cccc(F)c3)cc2CN2CCN(c3ccccn3)CC2)o1	14.7
CS(=O)(=O)N1Cc2cc(Oc3cccnc3)ccc2C1c1cnco1 (stereo not given)	25.7
C=CCN1C(=O)COC2(CCN(Cc3ccc(C)s3)CC2)C1C (stereo not given)	-20.4
CC(C)C(=O)NS(=O)(=O)c1ccc(NC(=O)c2ccccc2)cc1	5.8
CCOc1ccc(NC(=O)c2nnn(Cc3nc(-c4ccc(OC)cc4OC)oc3C)c2C)cc1	221.8
Cc1ccc(N2CCc3ncnc(OC(C)C)c3CC2)nn1	-1.0
CC1CCN(c2ncnc3c2cnn3CC(=O)Nc2cc(F)cc(F)c2)CC1	-68.2
